GALR2 agonist = agonists of human galanin receptor 2 (GALR2); O43603; GALR2-expressing cells, agonist activation read-out; activation, %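 (tested at 5 µM)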; 140,000 tested, 0.48% active;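 active means above mean plus 3 SD of all compounds, about 5% in these data, not always enough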;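 further: 0% = vehicle buffer wells and 100% = reference agonist at full effect; tested in CHO reporter cells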
Target sequence (O43603 whole entry, looked up): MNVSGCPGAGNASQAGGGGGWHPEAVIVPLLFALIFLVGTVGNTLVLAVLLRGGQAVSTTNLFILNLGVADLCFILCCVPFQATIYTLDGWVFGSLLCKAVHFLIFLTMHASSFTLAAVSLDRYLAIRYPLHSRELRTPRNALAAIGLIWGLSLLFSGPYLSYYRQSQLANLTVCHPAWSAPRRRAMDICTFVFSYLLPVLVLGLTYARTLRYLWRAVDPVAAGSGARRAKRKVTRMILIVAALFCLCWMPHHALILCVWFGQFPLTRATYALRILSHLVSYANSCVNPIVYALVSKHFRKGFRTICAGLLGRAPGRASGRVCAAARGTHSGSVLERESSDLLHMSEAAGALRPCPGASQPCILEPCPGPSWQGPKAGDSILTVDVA
PKD1 kinase inh = inhibitors of human PKD1 kinase. PKD1 kinase fluorescence polarization assay. inhibition, %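 (about 10 µM by stock and volumes)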. Q15139. 200,000 tested, 0.056% active. AID 797;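 active means inhibition of 50% or more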;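 further: controls were vehicle for no effect and a reference inhibitor for full effect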
INS promoter inh = TRM-6 insulin promoter activity inhibition. inhibition, % at 2 µM. TRM-6 cells (human fetal islet line), insulin promoter-eGFP reporter, imaging; reporter expression induced with tamoxifen. AID 1273. 130,000 tested, 0.9% active;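 active means inhibition above the mean plus 3 SD, with well images judged a real hit on visual review, cut at about 60% in these data, passing the limit was not always enough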
HSV augment = increases HSV replication in cells | maximum fold increase | AID 1956 | HSV replication augmentation in cells, fold increase | 220,000 tested, 0.005% active;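 active means peak rise of 1.5-fold or more in the series; tested in PC3 cells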;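 further: first round at 10 µM; read as green reporter fluorescence; hits show the peak of a series up to 25 µM; 1 = signal of infected wells without compound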
RGS16-Gao HTS = regulators of human RGS16-Galphao interaction; 220,000 tested, 0.38% active; binding response (% of control), % at 10 µM; O15492+P09471; bead-based flow cytometry RGS16-Galphao binding, fluorescence; actives lie on both sides;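 active means below 25% or above 175%, edge rows of some plates excepted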;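 further: Galphao activated by GDP with aluminum fluoride before binding; 100% = wells without compound and 0% = beads without RGS; some results beyond the cut were filed as inactive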
Target sequence (O15492 whole entry, looked up): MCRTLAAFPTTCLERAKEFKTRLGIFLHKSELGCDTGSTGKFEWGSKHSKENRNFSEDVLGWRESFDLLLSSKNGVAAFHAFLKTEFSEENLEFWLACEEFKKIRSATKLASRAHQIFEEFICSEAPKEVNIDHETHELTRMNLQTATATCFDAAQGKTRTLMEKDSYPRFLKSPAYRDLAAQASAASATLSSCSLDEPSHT
Target sequence (P09471 whole entry, looked up): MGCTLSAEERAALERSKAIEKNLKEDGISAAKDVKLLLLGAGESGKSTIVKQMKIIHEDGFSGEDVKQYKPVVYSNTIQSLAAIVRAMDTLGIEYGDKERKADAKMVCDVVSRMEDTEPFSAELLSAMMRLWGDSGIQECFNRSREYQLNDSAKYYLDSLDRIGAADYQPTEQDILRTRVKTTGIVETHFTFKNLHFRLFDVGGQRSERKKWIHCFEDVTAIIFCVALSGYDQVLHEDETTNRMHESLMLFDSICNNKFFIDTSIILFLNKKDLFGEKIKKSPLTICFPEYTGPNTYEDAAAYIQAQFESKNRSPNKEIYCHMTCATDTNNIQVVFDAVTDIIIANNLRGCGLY
INS promoter inh cell count = also measured in INS promoter inh; calls as there; normalized cell count, %; measured here: cell count, toxicity; reference of the scale not given here;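 cells exposed to compound for 48 h; stained nuclei by imaging scaled within each plate; lower means fewer cells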
HSV augment primary fold = recorded beside HSV augment, whose call it bears; fold increase; compound at 10 µM; measured here: primary screen fold increase 10 uM; tested in PC3 cells;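 GFP signal in the first replicate; 1 = infected wells without compound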
An asterisk follows results filed as active; i = inactive; x = no result given.

Every second line gives: GALR2 agonist, PKD1 kinase inh, INS promoter inh, INS promoter inh cell count, HSV augment, HSV augment primary fold, RGS16-Gao HTS
> CC(C)CCNC(=O)NC(=O)COC(=O)C1CCN(S(=O)(=O)c2ccccc2F)CC1
 : 0.1, -6, x, x, i, 0.97, 99
> CNC(=O)COC(=O)c1ccc(Cl)c(S(=O)(=O)N2CCCC2)c1
 : x, -4, 53, 139, i, 0.91, 103
> Cc1c(C(=O)Nc2nc3ccccc3[nH]2)oc2c(Cl)cccc12
 : 3.4, 2, -42, 95, i, 0.75, 105
> O=C1OC(c2ccc(Br)cc2)=N/C1=C\c1ccco1
 : x, 1, 42, 54, i, 0.91, 110
> Cc1ccc(NC(=O)CC2NCCNC2=O)cc1 (stereo unspecified)
 : 0.6, -2, -41, 157, i, 0.94, 103
> CCc1ccc2c(c1)c1nc(C)sc1n2CC
 : -1.4, 3, x, x, i, 0.84, 89
> O=C1CC(c2ccccc2)c2ccccc21 (stereo unspecified)
 : x, -2, 21, 136, i, 0.86, 98
> CC(C)(C)c1cc2nc3c(c(=O)n2[nH]1)CN(Cc1ccccc1)C3=O
 : x, x, x, x, i, 0.89, 100
> CO/N=C(/CNC(=O)c1ccc(Cl)cc1Cl)c1ccc(Cl)cc1
 : -2.5, -8, x, x, x, x, 108
> Cc1onc(-c2ccccc2Cl)c1C(=O)Nc1sc2c(c1C#N)CCC2
 : -1.6, 9, x, x, i, 0.91, 100
> CCOC(=O)N/N=C/c1c(C)nn(-c2cccc(C(F)(F)F)c2)c1Cl
 : 0.4, -3, 10, 49, i, 0.71, 102
> CC1(c2ccc3noc(-c4ccccc4)c3c2)OCCO1
 : -1.1, -3, 12, 137, i, 1, 101
> Cc1cc(C)n(Cc2ccc(Cl)c(Cl)c2)c(=O)c1S(=O)(=O)c1ccccc1
 : 0.3, 4, 4, 92, x, x, 99
> CCC(C)(C(=O)Nc1ccccc1C)N(C(=O)CNC(C)=O)c1ccccc1C (stereo unspecified)
 : 0.0, -5, -36, 112, i, 0.97, 106
> CCOC(=O)C(Cc1ccccc1)c1ccnc2nc(N)nn12 (stereo unspecified)
 : x, 1, x, x, i, 0.85, 97
> O=C(C1CCN(S(=O)(=O)c2ccc3c(c2)OCCO3)CC1)N1CCc2ccccc21
 : -0.9, -6, x, x, i, 1, 103
> Cc1cc(=O)[nH]c(SCC(=O)N2CCC(C(N)=O)CC2)n1
 : 0.7, -4, -31, 225, i, 0.9, 101
> OCCOc1ccc(C2=NCCO2)cc1
 : -1.7, -4, -167, 91, i, 0.94, 107
> COC(=O)C1SCC2C(=O)N(Cc3ccc(Cl)c(Cl)c3)CC(=O)N21 (stereo unspecified)
 : x, 5, x, x, i, 0.96, 97
> O=C(CSc1nnc(CNC(=O)c2ccccc2F)o1)NCC1CCCO1 (stereo unspecified)
 : -0.1, -1, -29, 93, i, 0.97, 97
> Cc1ccccc1CSCC(=O)N/N=C/c1cccs1
 : -0.4, -11, 50, 123, i, 0.88, 97
> Cc1nc(N2CCN(C)CC2)c2c(C)c(C(=O)Nc3ccc(F)cc3)sc2n1
 : 0.5, 15, 0, 171, i, 0.98, 102
> O=C(c1ccccc1-c1ccccc1)N1CCOCC1
 : -1.2, -5, 47, 111, i, 1, 107
> c1ccc(CSc2nnc(-c3ccco3)n2Cc2ccccc2)cc1
 : 1.7, -1, 18, 253, i, 1.1, 102
> COc1cc(/C=N/NC(=S)NCCN2CCOCC2)ccc1O
 : -0.7, 0, 13, 99, i, 0.97, 105
> COc1ccc(C(=O)NC(=O)COC(=O)c2ccc3ncsc3c2)cc1
 : -1.9, -2, 22, 131, i, 1, 86
> CCCCC(=Nc1ccccc1OC)C1=C(O)CC(c2ccccc2)CC1=O (stereo unspecified)
 : 0.3, -4, -9, 127, i, 1.1, 106
> S=c1[nH]ncn1/N=C/c1ccc(Br)cc1
 : -0.9, -4, -39, 129, i, 0.68, 102
> O=C(c1ccc2nc(N3CCOCC3)sc2c1)N1CCC(Cc2ccccc2)CC1
 : -1.1, -7, x, x, i, 0.96, 101
> COc1cccc([C@@H]2Oc3ccc(OC)cc3C(=O)[C@H]2OC(=O)NCc2ccc3c(c2)OCO3)c1
 : -1.5, 5, -10, 101, x, x, 50

Part of the list above, with tabs.
structure	GALR2 agonist	PKD1 kinase inh	INS promoter inh	INS promoter inh cell count	HSV augment	HSV augment primary fold	RGS16-Gao HTS
c1ccc(CSc2nnc(-c3ccco3)n2Cc2ccccc2)cc1	1.7	-1	18	253	i	1.1	102
COc1cc(/C=N/NC(=S)NCCN2CCOCC2)ccc1O	-0.7	0	13	99	i	0.97	105
COc1ccc(C(=O)NC(=O)COC(=O)c2ccc3ncsc3c2)cc1	-1.9	-2	22	131	i	1	86
CCCCC(=Nc1ccccc1OC)C1=C(O)CC(c2ccccc2)CC1=O (stereo unspecified)	0.3	-4	-9	127	i	1.1	106

The results go on:
Every second line gives: GALR2 agonist, PKD1 kinase inh, INS promoter inh, INS promoter inh cell count, HSV augment, HSV augment primary fold, RGS16-Gao HTS
> O=C(N/N=C\C=C\c1ccc2c(c1)OCO2)c1cccnc1
 : -0.4, -1, -42, 100, i, 0.89, 103
> COc1ccccc1Cn1c(=S)[nH]c2cc(C(=O)NCc3cccnc3)ccc2c1=O
 : x, -1, 14, 187, i, 0.85, 116
> CN(C)/C=C/C(=O)c1cccc(Cl)c1
 : -2.4, -7, 13, 106, i, 0.9, 102
> CC1CC(C)CN(CCOc2ccc(Br)cc2)C1 (stereo unspecified)
 : -1.8, -3, -47, 79, i, 0.99, 94
> COc1cc(NC(=S)NC(=O)c2ccc(C(C)(C)C)cc2)ccc1NC(=O)c1cccs1
 : -3.9, -5, 6, 116, i, 0.95, 86
> COC(=O)C1=C(NC(=O)CCCCl)CCS1
 : -0.9, -5, x, x, i, 1, 119
> CC(NC(=O)C1CC1)C(c1cccs1)N1CCN(c2ccccc2)CC1 (stereo unspecified)
 : -0.8, 8, -20, 47, i, 0.9, 102
> COc1cc(OC)c2nc(C)c3c(c2c1)N(c1ccc(O)cc1)CC3
 : -2.6, 3, -50, 112, x, x, 98
> CC1=C(C(=O)OC(C)C)C(c2cccnc2)n2ncnc2N1 (stereo unspecified)
 : -3.3, -7, x, x, i, 0.95, 98
> CC(=O)c1ccc(N=Nc2ccc(N(C)C)cc2)cc1
 : x, 1, 50, 233, i, 0.9, 105
> Cc1ccc(S(=O)(=O)Nc2ccc(Cl)cc2)cc1NC(=O)c1cc2c(s1)CCCC2
 : -1.0, 1, -38, 100, i, 0.89, 105
> Nc1cc([N+](=O)[O-])ccc1N1C(=O)CCCC1=O
 : x, x, x, x, i, 0.84, 95
> CCC(=O)Nc1cc(C(=O)OCC(=O)c2ccccc2Cl)ccc1C
 : -1.3, -2, x, x, i, 0.95, 93
> Cn1c(C(=O)N2CCN(c3ncccn3)CC2)cc2c(=O)n(C)c3ccccc3c21
 : -1.8, -5, x, x, i, 1.1, 100
> N#Cc1nc(-c2ccc(Cl)cc2)oc1NCc1ccco1
 : -1.7, -3, -7, 119, i, 1.1, 104
> COc1cc(S(=O)(=O)N2CCC(c3nc4ccccc4s3)CC2)ccc1S(=O)(=O)N1CC(C)CC(C)C1 (stereo unspecified)
 : -2.1, -7, 52, 82, i, 0.97, 107
> COc1cccc(C(=O)Nc2c(C)nn(-c3ccccc3)c2C)c1
 : x, -9, x, x, i, 0.63, 96
> CCOC(=O)C(C)Oc1cccc2c(=O)n(CC(=O)NCc3ccccc3)ccc12 (stereo unspecified)
 : x, x, x, x, i, 0.73, 103
> COc1ccc(-c2nnc(SCC(=O)N3CCOCC3)n2C)cc1OC
 : -2.3, -8, 44, 127, i, 0.71, 112
> CC(C)CC(N=Cc1c(O)c2ccccc2oc1=O)C(=O)O (stereo unspecified)
 : x, -5, -67, 199, i, 0.98, 106
> Cc1ccc(/C(N)=N/OC(=O)c2ccc(C)cc2Cl)cc1
 : 0.5, 4, 50, 162, i, 0.9, 104
> O=C(N/N=C/c1cccnc1)C(O)c1ccccc1 (stereo unspecified)
 : 0.5, 6, -94, 63, i, 0.98, 75
> CCC1CCCCN1CCNC(=O)CCS(=O)(=O)c1ccc(Br)cc1 (stereo unspecified)
 : -3.2, -1, -33, 101, i, 1.2, 102
> Cc1cccc(OS(=O)(=O)NC(=O)OCC2CCCN3CCCCC23)c1 (stereo unspecified)
 : x, 0, 25, 75, i, 1, 102
> Oc1ccc2ccccc2c1N=Nc1nccs1
 : x, x, x, x, i, 0.87, 100
> Cc1cc(/C=N/NC(N)=O)c(C)c(CO)c1
 : -2.0, -10, 35, 131, x, x, 105
> CS(=O)(=O)c1ncc(Cl)c(C(=O)Nc2ccc(N3CCOCC3)cc2)n1
 : -1.5, 1, x, x, x, x, 86
> CN(C)C(=S)c1ccccc1
 : x, x, x, x, i, 0.97, 101
> Fc1ccc(NC(=S)Nc2cccnc2)c(Cl)c1
 : x, 3, x, x, i, 1, 107
> O=C(Nc1ccccc1N1CCOCC1)c1cccc([N+](=O)[O-])c1
 : -1.3, -10, -36, 117, i, 1, 105
> Cc1ccc(NC(=O)CSc2nccc(=O)[nH]2)c(S(=O)(=O)N2CCOCC2)c1
 : -2.2, 1, 7, 117, i, 0.9, 83
> CCOC(=O)C1(Cc2ccc(O)cc2)NC(c2ccccc2F)C2C(=O)N(C)C(=O)C21 (stereo unspecified)
 : -1.7, -2, -43, 115, i, 1, 111
> CC(=C\c1ccccc1)/C=C1/SC(=S)N(CCC(=O)Nc2ccccn2)C1=O
 : x, 2, -7, 141, i, 0.95, 99
> Cc1cc(=O)[nH]c(NN)n1
 : x, x, x, x, i, 0.97, 109
> CCOC(=O)C1=C(O)C(=O)N(Cc2ccccc2)CC1
 : x, -1, x, x, i, 1.1, 96
> FC(F)(F)c1cc(Oc2ccc(Cl)cc2)ncc1-c1nnc(-c2ccc(Cl)cc2)o1
 : x, x, x, x, i, 1, 105
> CS(=O)(=O)N1CCN(Cc2ccc([N+](=O)[O-])cc2)CC1
 : x, -6, x, x, i, 0.91, 106
> c1coc(CNc2nc(N3CCCCC3)nc3ccccc23)c1
 : -0.9, -5, -16, 88, i, 0.62, 102
> CN(C)CCNc1nc2c(c(=O)[nH]c(=O)n2C)n1CC(O)COc1ccc(Cl)cc1Cl (stereo unspecified)
 : -1.0, -7, 54, 52, i, 1, 99
> COCCCNC(=O)c1ccc(Cn2c(=O)[nH]c3ccccc3c2=O)cc1
 : -1.2, -8, 5, 119, x, x, 100
> Cc1ccc(NC(=O)C2CCCCC2C(=O)O)cc1Cl (stereo unspecified)
 : x, -1, 22, 49, i, 0.94, 103
> C=CCn1nnnc1SCC(=O)Nc1ccccc1C(=O)OC
 : -0.3, -3, x, x, i, 0.92, 105
> O=C(NCc1cccs1)C1CCN(S(=O)(=O)c2ccc3c(c2)OCCO3)CC1
 : -1.3, -10, -61, 70, i, 0.95, 99
> O=C(CCCCCNC(=O)c1ccccc1)N=Nc1c(O)[nH]c2c(Br)cc(Br)cc12
 : x, -5, -59, 138, i, 0.88, 100
> Cc1cccc(NC(=O)Cn2nnc3sc4c(c3c2=O)CC(C)(C)OC4)c1
 : x, x, x, x, i, 0.97, 79
> CC1=C(C(N)=O)C(c2ccc(Cl)cc2)NC(=O)N1 (stereo unspecified)
 : 0.3, 5, x, x, i, 0.82, 102
> COc1ccc(C(=O)CSc2nc3ccccc3n2CC(=O)NC(C)(C)C)cc1
 : -2.1, -10, 21, 97, i, 0.98, 105
> NCCCC[C@H]1CNC(=O)C(=O)N1CCC12CC3CC(CC(C3)C1)C2
 : x, x, x, x, i, 0.71, 103
> O=C(Oc1ccc(-c2cn3c(n2)SCC3)cc1)c1ccccc1
 : -2.5, -6, -59, 124, i, 0.77, 76
> Cn1cc(Cl)c(C(=O)NNC(=S)NC2CCCCC2)n1
 : -0.9, 6, -492, 85, i, 0.9, 103
> CNC(=S)NNC(=O)c1ccc(=O)n(Cc2ccc(Cl)cc2Cl)c1
 : x, -2, x, x, x, x, 102
